# Source: PubChem BioAssay
# Measles inh – inhibitors of measles virus growth in cells, primary screen, measles RdRp inhibitor project, cell-based, single point, HTS | infected Vero cells, GFP fluorescence, 64 h; hits give low values | AID 745, 2007 | 0.1% of 33,000 active | z-score (no concentration beside the values);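 active = z-score under -3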;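 also: score is relative to mean and SD of the compound wells of a plate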
# Starred values were filed as active, the others as inactive. A portion of the library, so the mix of outcomes need not match the whole.
SMILES,Measles inh
Cc1cc(C)cc(Oc2ncnc(N)c2[N+](=O)[O-])c1,0.35
CC(C)Nc1ncnc2c1c(-c1ccccc1)cn2-c1cccc(C(F)(F)F)c1,-0.82
CC(=O)N1CCCc2cc(S(=O)(=O)NCCc3ccc(C)cc3)ccc21,-0.32
O=C(CN1C(=O)C2C3C=CC(CC3)C2C1=O)Nc1cccc(F)c1 (centres undefined),2.5
COc1cccc(CNC(=O)C2c3ccccc3C(=O)N3CCc4ccccc4C23)c1 (centres undefined),0.52
Clc1ccccc1C1Nc2ccccc2C2C=CCC21 (centres undefined),1.9
C=CCn1c(=O)c(C(=O)Nc2ccc(O)cc2)c(O)c2ccccc21,-0.48
N#Cc1c(NC(=O)c2noc3c2CCCCC3)sc2c1CCCC2,-1.1
O=C(CN1C(=O)c2cccc([N+](=O)[O-])c2C1=O)Nc1ccc(OC(F)(F)F)cc1,-1.7
COc1ccc(C(=O)N2CCN(S(=O)(=O)c3ccc(Cl)cc3)CC2)cc1,-0.17
c1ccc(SN=C(c2ccccc2)c2ccccc2)cc1,-0.57
CCS(=O)(=O)N1CCN(c2c(Cl)cccc2[N+](=O)[O-])CC1,1.5
C=CCN(CC=C)Cc1c(C)[nH]c2c(C)cc(C)cc2c1=O,-0.54
Cc1ccc(C(=O)Nc2ccc(Br)cc2)cc1S(=O)(=O)NCc1ccccc1,1.5
CCCCN=C(C(=O)NC1CCCCC1)c1ccccc1NC(C)=O,-0.98
Cc1ccc(S(=O)(=O)NCC(=O)Nc2ccc(C)cc2C(=O)c2ccccc2)cc1,0.49
CCSc1nnc2c(n1)[nH]c1ccc(CC)cc12,-0.71
CCOc1cc2[nH]c(=S)n(Cc3ccc(OC)cc3)c(=O)c2cc1OCC,0.53
CCOc1ccc(Nc2ccc(C(=O)O)cc2[N+](=O)[O-])cc1,-1.4
COc1ccc([N+](=O)[O-])cc1NC(=O)CCN1CCC(C)CC1,-0.16
Cc1c(C(=O)NCc2ccc(F)cc2)sc2ncnc(N(C)c3ccccc3)c12,0.01
COc1ccc(C2CC(=O)c3c([nH]c(C(=O)OC4CCCCC4)c3C)C2)cc1OC (centres undefined),-0.35
COC(=O)CN1C(c2ccc(OC)cc2)Nc2ccc(Br)cc2C1c1ccccc1 (centres undefined),-0.35
COc1ccc(C)cc1-n1cnc2cc(C(=O)NCc3ccccc3Cl)ccc21,-1
CCc1ccc(C(C)NS(=O)(=O)c2ccc3oc4ccccc4c3c2)cc1 (centres undefined),-0.5

# Some of the entries so far, field by field:
mol: CCOc1cc2[nH]c(=S)n(Cc3ccc(OC)cc3)c(=O)c2cc1OCC
  Measles inh = 0.53
mol: CCOc1ccc(Nc2ccc(C(=O)O)cc2[N+](=O)[O-])cc1
  Measles inh = -1.4
mol: COc1ccc([N+](=O)[O-])cc1NC(=O)CCN1CCC(C)CC1
  Measles inh = -0.16
mol: Cc1c(C(=O)NCc2ccc(F)cc2)sc2ncnc(N(C)c3ccccc3)c12
  Measles inh = 0.01

# More structures
SMILES,Measles inh
Cc1cc(-c2ccc(C(C)C)cc2)c(C#N)c(N)n1,-0.46
CNC(=O)CN(c1ccc(Cl)cc1)S(=O)(=O)c1ccc(OC)cc1,-0.27
O=C1Nc2ccccc2C(O)(C(=O)NCCc2ccccc2)N1c1ccc(Cl)cc1 (centres undefined),-0.3
CC(C)(C)C1CCC2(CC1)NC(=O)c1ccccc1O2 (centres undefined),0.89
COc1ccc(C=Nc2ccc(-c3nc4ccc(C)cc4o3)c(O)c2)cc1OC,-0.13
CCOc1ccccc1N(C)C(=O)C1c2cc(OC)c(OC)cc2C(=O)N(C)C1c1cccs1 (centres undefined),-0.47
COc1ccc2cc3cc(C(=O)N4CCN(Cc5ccccc5)CC4)oc3nc2c1,-1.4
Cc1ccc2c(c1)C(c1ccc(F)cc1)N(C(=O)c1ccc(C(C)(C)C)cc1)CC(=O)N2 (centres undefined),0.5
Cc1ccc(Cl)cc1S(=O)(=O)N1CCN(S(=O)(=O)c2cc(Cl)ccc2C)C(C)C1 (centres undefined),1.1
CCN(C(=O)c1cc2c(=O)n3ccccc3nc2s1)c1ccc(C)c(C)c1,1.1
O=c1[nH]c(NCCO)c(I)c(=O)[nH]1,1.4
COC(=O)c1ccc2c(=O)[nH]c3c(C(=O)Nc4ccccc4)sc(=S)n3c2c1,-0.02
O=C(O)c1cc(N2C(=O)C3CC=CCC3C2=O)ccc1Cl (centres undefined),0.22
CC(Oc1ccc(F)cc1)C(=O)Nc1cccnc1 (centres undefined),-1.3
O=C1CCC(c2ccccc2)(C2CCN(Cc3ccccc3)CC2)C(=O)N1 (centres undefined),-0.2
O=C(O)CCCCCNc1nc(=S)[nH]c2ccccc12,0.34
CC1=C(C(=O)OC(C)C)C(c2ccc(C)cc2)N2C(=O)C(C)SC2=N1 (centres undefined),-1.8
O=C(CN1CCCC1)N1c2ccccc2Sc2ccc(Cl)cc21,-1.4
CCC(C)NC(=O)c1ccc(Sc2ccc(C)cc2)c(NC(C)=O)c1 (centres undefined),1.5
Cc1ccc(S(=O)(=O)NC(CC(=O)O)C(C)C)cc1 (centres undefined),1.4
Cc1ccc(S(=O)(=O)Nc2ccccc2-c2ccccc2NS(=O)(=O)c2ccc(C)cc2)cc1,0.59
Cc1ccccc1Nc1nnc(-c2ccc(C)c(S(=O)(=O)NC(C)(C)C)c2)c2ccccc12,0.13
CC(NC(=O)c1c[nH]c2ccc(S(=O)(=O)Nc3cccc(C(F)(F)F)c3)cc2c1=O)c1ccc2c(c1)OCCO2 (centres undefined),0.47
CCCOC(=O)C1=C(C)NC2=C(C(=O)CC(c3ccc(OC)c(OC)c3)C2)C1c1ccccc1F (centres undefined),-1.1
CCOc1ccccc1NC(=O)CCS(=O)(=O)c1ccc2c(c1)CC(C)N2C(C)=O (centres undefined),1.1

# Other structures
SMILES,Measles inh
CCCCn1c2ccccc2c2ccccc21,-1.1
CCc1ccc(C2CC(c3cccc(OC)c3OC)n3nnnc3N2)cc1 (centres undefined),-0.45
Cc1ccccc1C(=O)NCc1ccccc1,1.8
CCOc1ccccc1NC(=O)C(=O)NCCc1c[nH]c2ccccc12,-0.6
Cc1c(Cl)cccc1-n1[nH]c(=O)c2ccccc2c1=O,-1.6
O=C(CSc1ncnc2sc3c(c12)CCCC3)c1cccs1,-0.03
O=C(NC(NCC12CC3CC(CC(C3)C1)C2)(C(F)(F)F)C(F)(F)F)c1cccnc1,-0.2
CCc1ccc(OCCCC(=O)Nc2ccc(N3CCCCC3)cc2)cc1,-0.4
Fc1ccc(-n2cc(-c3ccc(Oc4ccccc4)cc3)[nH]c2=S)cc1,0.02
CCN(CC)c1cc(C)c2cc(NC(=O)c3ccc4c(c3)c(C)c(C)n4C)ccc2n1,0.86
C=CCNC(=O)CCN1N=C(c2ccc(C)cc2)CCC1=O,-0.12
COc1ccc(NC(=O)c2c(C)nn(-c3ccccc3)c2Cl)cc1,0.25
O=C(NC1CCCCC1)NC12CC3CC(CC(C3)C1)C2,-0.13
Cc1cc(OCC(=O)Nc2cccc(-c3cc4ccccc4oc3=O)c2)cc(C)c1Cl,-0.4
Cc1cc2nnc(SCc3ccccc3F)n2c2ccccc12,-0.29
Cc1ccc(C(=O)N2N=C(CC(C)C)CC2(O)C(F)(F)F)o1 (centres undefined),-2.5
CCOCCCNC(=O)c1ccc2c(c1)N(Cc1ccccc1C)C(=O)c1ccccc1S2,1.1
COc1ccc(C2C(=O)N(C3CCCCCC3)CC(=O)N2CCC2=CCCCC2)cc1OC (centres undefined),-2
O=C(Cc1ccc(Cl)cc1)N1CCN(c2ccc(Cl)cc2[N+](=O)[O-])CC1,-0.7
COc1ccccc1OC(=O)c1cc(-c2ccc(C)cc2)nc2ccccc12,-0.66
Cc1nnc(C)c2c(C)oc(C)c12,0.5
N#CCc1ccc(NC(=O)COc2ccc([N+](=O)[O-])cc2)cc1,1
Cc1cc2nc3c4cccc5cccc(c(=O)n3c2cc1C)c54,0.08
CCOC(=O)c1c(C)oc2ccc(O)c(CN3CCCCC3)c12,0.56
COCc1cc(C)nc2sc3c(nnn4c5ccccc5nc34)c12,-0.1

# The listing continues.
SMILES,Measles inh
CCN(CC)S(=O)(=O)c1ccc(C(=O)N=c2sc3cccc(Cl)c3n2CC)cc1,-0.41
CN(C)S(=O)(=O)c1ccc(/C(O)=C2\C(=O)C(=O)N(CCN3CCCCC3)C2c2ccccc2)cc1 (centres undefined),-0.35
CCCc1n(CC(O)COc2ccc(C(C)C)cc2)c2ccccc2[n+]1C (centres undefined),-1.2
CC(C)C(NC(=O)c1ccco1)C(=O)OCC(=O)c1ccc(Cl)cc1 (centres undefined),0.83
O=C(NCc1ccco1)C1CCCN(S(=O)(=O)c2cccc3nsnc23)C1 (centres undefined),-0.31
O=C(O)CC(Cc1ccccc1)c1ccco1 (centres undefined),0.01
COc1ccc(Cl)cc1NC(=O)C1=C(C)NC(=O)NC1c1ccc(N(C)C)cc1 (centres undefined),0.29
O=C(c1ccccc1)N1N=C(C(F)(F)F)CC1(O)c1cccc([N+](=O)[O-])c1 (centres undefined),-1.4
Nc1c(C(=O)Nc2nccs2)sc2nc(-c3cccs3)cc(C(F)(F)F)c12,0.5
COc1ccc2nc(NC(=O)c3ccccc3F)sc2c1,-0.55
c1coc(-c2nnc3c4ccccc4c4ccccc4n23)c1,1.1
CSc1nc2c(cnn2-c2ccc(C)c(C)c2)c(=O)[nH]1,-0.97
CCCCn1c2ccc(C)cc2c2nc3ccccc3nc21,0.3
COc1ccc(-n2nc3cc(C)c(NC(=O)c4ccccc4Cl)cc3n2)cc1,-1.3
O=C(O)CN1C(=O)C2C3CC(C2C1=O)C1C(c2ccc(Br)cc2)c2sc(=O)[nH]c2SC31 (centres undefined),0.1
CCOC(=O)c1c(-c2ccccc2)csc1NC(=O)c1noc2c1CC(C(C)(C)C)CC2 (centres undefined),-1.3
COc1ccccc1CNC(=O)CCn1c(=O)[nH]c2ccccc2c1=O,0.65
COc1cccc(-n2c(=O)c3cc(OC)c(OC)cc3n(CC(=O)Nc3cc(C)[nH]n3)c2=O)c1,-0.23
O=C(CCCCCN1C(=O)c2ccccc2C1=O)Nc1ccc[nH]c1=O,0.68
COc1ccc(C2=NN3C(C2)c2ccccc2OC3c2cccc([N+](=O)[O-])c2)cc1 (centres undefined),-0.05
COc1cc2c(cc1OC)C(C(=O)Nc1ccc(F)cc1)C(c1cccnc1)N(C)C2=O (centres undefined),1.6
O=C(Cc1csc(Nc2nc(=S)[nH]c3ccccc23)n1)NCCC1=CCCCC1,-0.28
Cc1ccc(-c2nc3ncccc3o2)cc1NC(=O)c1cccc(Br)c1,2.1
CC(=O)N1N=C(c2ccc(C)c([N+](=O)[O-])c2)OC12CCCC2,-1
COc1ccc(-c2ncnn2-c2sc3c(c2C#N)CCCC3)cc1OC,1.2

# The list goes on, overlapping the part above by 2 compounds.
SMILES,Measles inh
CC(=O)N1N=C(c2ccc(C)c([N+](=O)[O-])c2)OC12CCCC2,-1
COc1ccc(-c2ncnn2-c2sc3c(c2C#N)CCCC3)cc1OC,1.2
Cc1ccccc1OCCNc1cc(N2CCN(C)CC2)ccc1[N+](=O)[O-],0.19
COc1ccc(NC(=O)c2ccc(Br)o2)cc1Cl,-0.38
COc1ccc(NC(=O)CSc2nc3c(cnn3-c3ccc(F)cc3)c(=O)[nH]2)c(OC)c1,-0.57
O=C(Nc1cccc2ccccc12)c1sc2cccc(Cl)c2c1Cl,0
CC(C)Oc1ccc(C2C3=C(CC(C)(C)CC3=O)Nc3ccccc3N2C(=O)C(F)(F)F)cc1 (centres undefined),-0.52
O=C(O)c1cc(-[n+]2nc3nonc3[nH]2)ccc1[O-],0.35
Cc1ccc(CNS(=O)(=O)c2ccc(F)c(C(=O)Nc3cccc(F)c3)c2)cc1,-0.33
N#Cc1ccc(Oc2ccccc2N2C(=O)C3C4C=CC(C4)C3C2=O)cc1 (centres undefined),0.79
C=CCc1cccc(CNc2cnc3ccccc3c2)c1O,-0.3
O=[N+]([O-])c1ccc(N2CCN(S(=O)(=O)c3ccc(Cl)cc3)CC2)cc1NCc1ccco1,-0.36
COc1cc(C2NC(=O)CCC2[N+](=O)[O-])cc(Br)c1O (centres undefined),-0.27
O=C1C2C3CCC(C3)C2C(=O)N1c1ccc(Br)cc1 (centres undefined),-1.1
COc1nn(-c2nc(-c3ccco3)cc(C(F)(F)F)n2)c(C)c1[N+](=O)[O-],-0.76
COc1ccc(OC)c(C2SCCN2S(=O)(=O)c2cccc([N+](=O)[O-])c2)c1 (centres undefined),0.72
COC(=O)Cc1ccc(N(Cc2ccccc2F)S(=O)(=O)c2cccc(C(F)(F)F)c2)cc1,-1.5
O=C1C(NS(=O)(=O)c2ccccc2)=CC(=NS(=O)(=O)c2ccc(F)cc2)c2ccccc21,-0.33
COc1cc2c(cc1OC)CN(S(=O)(=O)c1cccc(F)c1)CC2,0.53
O=C1C2C3C=CC(C3)C2C(=O)N1CCCO (centres undefined),0.31
O=C(CC1SC(=O)NC1=O)Nc1cccc(C(F)(F)F)c1 (centres undefined),0.64
O=C(NCc1ccco1)C1CCN(S(=O)(=O)N2CCCC2)CC1,0.84
OC(Cn1nnc2ccccc21)Cn1c2ccc(Br)cc2c2cc(Br)ccc21 (centres undefined),0.24

# By substructure: the entries above with a cyano group
SMILES,Measles inh
N#Cc1c(NC(=O)c2noc3c2CCCCC3)sc2c1CCCC2,-1.1
Cc1cc(-c2ccc(C(C)C)cc2)c(C#N)c(N)n1,-0.46
N#CCc1ccc(NC(=O)COc2ccc([N+](=O)[O-])cc2)cc1,1
COc1ccc(-c2ncnn2-c2sc3c(c2C#N)CCCC3)cc1OC,1.2
N#Cc1ccc(Oc2ccccc2N2C(=O)C3C4C=CC(C4)C3C2=O)cc1 (centres undefined),0.79
